Vaccinia inh = Vaccinia orthopox stage-specific inhibition; AID 1053133; activity change (mCherry), % (concentration not given with the values); Vaccinia-infected cells, mCherry/Venus stage reporter fluorescence; hits give low values; some inactives read as strong as hits; hit rate 0.01% among 89,000;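 active = mCherry past -33% and 40 or more points under the early reporter, replicates agreeing; inconclusive = past -33% without that gap or agreement; tested in A549 cells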;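 also: scaled between vehicle wells and reference inhibitor wells; 23 nL library stock went into each well; one replicate is shown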
Vaccinia inh Venus = further read-out of Vaccinia inh, marked with its call; activity change (Venus), %; measured here: Venus reporter, other viral stage;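 negative = less Venus signal; first of two replicates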
Active calls of the source: *; ? = inconclusive; . = not tested or not shown.

1	Cc1ccc(S(=O)(=O)N2C[C@@H](O)COC[C@@H]3O[C@H](CC(=O)N[C@@H]4CCN(Cc5ccccc5)C4)CC[C@H]32)cc1
2	C[C@H](CO)N1C[C@H](C)[C@H](CN(C)C(=O)Nc2ccc(F)cc2)OCCCC[C@H](C)Oc2ccc(NC(=O)Cc3ccccc3)cc2C1=O
3	O=C(C1CCCC1)N1C[C@H]2[C@@H](c3ccccc31)[C@@H](CO)N2C(=O)Cc1ccccn1
4	COc1ccc(-c2ccc3n(c2=O)C[C@H]2[C@H](CO)[C@@H](C(=O)O)[C@@H]3N2C(=O)c2ccccc2F)cc1
5	Cc1ccc(S(=O)(=O)Nc2ccc3c(c2)C(=O)N([C@@H](C)CO)C[C@@H](C)[C@@H](CN(C)C(=O)NC(C)C)OCCCC[C@@H](C)O3)cc1
6	O=C(c1cccc(F)c1)N1CCCCN2[C@@H](CO)[C@H](c3ccc(-c4cncnc4)cc3)[C@@H]2C1
screen / no. | 1 | 2 | 3 | 4 | 5 | 6
Vaccinia inh | -12 | -15 | -6 | 7 | 2 | 26
Vaccinia inh Venus | -6 | -11 | 13 | 9 | 1 | 1

7	COc1ccc2c3c([nH]c2c1)[C@H](CO)N(C(=O)c1ccc(F)cc1)CC31CN(C(=O)CC2CC2)C1
8	CC(=O)N1CC2(C1)[C@@H](c1ccccc1)[C@H](CO)N2C(=O)Cc1ccccc1
9	C[C@H]1CN([C@@H](C)CO)S(=O)(=O)c2ccc(C#CC3(O)CCCC3)cc2O[C@H]1CN(C)C(=O)Cc1cccnc1
10	C[C@@H]1CN([C@@H](C)CO)C(=O)c2cccc(NS(=O)(=O)c3ccccc3)c2O[C@H]1CN(C)CC1CC1
11	C[C@@H]1CN([C@@H](C)CO)C(=O)c2c(c3ccccc3n2C)-c2ccccc2CO[C@H]1CN(C)C(=O)Nc1ccnc(N2CCOCC2)c1
12	CO[C@H](CN(C)S(=O)(=O)c1cccc(Cl)c1)[C@@H](C)CN(C(=O)Nc1ccccc1F)[C@@H](C)CO
screen / no. | 7 | 8 | 9 | 10 | 11 | 12
Vaccinia inh | 21 | 5 | 16 | 4 | -20 | 1
Vaccinia inh Venus | 18 | 15 | -2 | 6 | -19 | 5

13	CC(C)NC(=O)N(C)C[C@H]1OCc2ccccc2-c2ccccc2C(=O)N([C@@H](C)CO)C[C@@H]1C
14	CCCc1cn(CC[C@@H]2CC[C@@H](NC(=O)Nc3ccccc3F)[C@@H](CO)O2)nn1
15	CC(C)CC#Cc1ccc2c(c1)O[C@H](CN(C)C(=O)NC(C)C)[C@H](C)CN([C@H](C)CO)S2(=O)=O
16	COc1ccc(S(=O)(=O)N(C)C[C@@H]2Oc3cc(C4=CCCC4)ccc3S(=O)(=O)N([C@@H](C)CO)C[C@@H]2C)cc1
17	CNC[C@H]1Oc2ccc(NC(=O)Nc3cccc4ccccc34)cc2C(=O)N([C@H](C)CO)C[C@H]1C
18	O=C(C[C@H]1CC[C@@H](NC(=O)c2ccc(F)cc2)[C@H](CO)O1)NCc1ccncn1
screen / no. | 13 | 14 | 15 | 16 | 17 | 18
Vaccinia inh | 31 | -5 | -1 | -8 | 21 | 18
Vaccinia inh Venus | 24 | -6 | 15 | -4 | 14 | 13

19	CN(C)Cc1cn(CC[C@H]2CC[C@@H](NC(=O)Nc3ccc4c(c3)OCO4)[C@H](CO)O2)nn1
20	CCCNC(=O)[C@@H]1[C@@H](CO)[C@@H]2Cn3c(ccc(-c4ccccc4F)c3=O)[C@H]1N2S(C)(=O)=O
21	COc1cccc(C#Cc2ccc([C@H]3[C@@H](CO)N4C(=O)CN(C(=O)c5ccncc5)C[C@@H]34)cc2)c1
22	COc1ccccc1-c1ccc2c(c1)O[C@H](CN(C)C)[C@H](C)CN([C@H](C)CO)S2(=O)=O
23	C[C@@H]1CN([C@H](C)CO)C(=O)c2cc(NC(=O)Nc3ccc(F)cc3)ccc2O[C@H]1CN(C)C(=O)NC1CCCCC1
24	O=C(C[C@H]1CC[C@H]2[C@@H](COC[C@@H](O)CN2Cc2ccc3c(c2)OCO3)O1)N1CCCCC1
screen / no. | 19 | 20 | 21 | 22 | 23 | 24
Vaccinia inh | 0 | 8 | -17 | -2 | 12 | -5
Vaccinia inh Venus | 7 | 9 | -12 | -7 | 8 | 4

25	O=C(C[C@@H]1C[C@@H]2c3cc(NC(=O)C4CCOCC4)ccc3O[C@@H]2[C@H](CO)O1)NCc1ccccc1
26	O=C(C[C@H]1C=C[C@H](NC(=O)c2ccncc2)[C@H](CO)O1)Nc1ccc(-c2ccccc2)cc1
27	COc1ccccc1-c1ccc2n(c1=O)C[C@@H]1[C@@H](CO)[C@H](C(=O)O)N(C(=O)c3cccnc3)[C@H]21
28	COc1ccc2c3c(n(C)c2c1)[C@@H](CO)N(CC1CCCC1)CC31CCN(C(=O)Nc2ccccc2)CC1
29	O=C(C[C@@H]1CC[C@H]2[C@@H](COC[C@H](O)CN2Cc2ccccc2F)O1)N[C@H]1CCN(Cc2ccccc2)C1
30	C[C@@H]1CN([C@@H](C)CO)C(=O)Cc2cc(NC(=O)Nc3ccc4c(c3)OCO4)ccc2O[C@H]1CN(C)S(=O)(=O)c1ccc(Cl)cc1
screen / no. | 25 | 26 | 27 | 28 | 29 | 30
Vaccinia inh | 10 | -8 | 10 | -14 | -4 | -2
Vaccinia inh Venus | 11 | -1 | 13 | -22 | 0 | 7

31	O=C(C[C@@H]1C=C[C@H](NS(=O)(=O)c2cccc(F)c2)[C@@H](CO)O1)N1CCCCC1
32	CC(C)NC(=O)Nc1cccc2c1O[C@H](CN(C)C(=O)Nc1ccc(F)cc1)[C@H](C)CN([C@@H](C)CO)C2=O
33	CC(C)NC(=O)Nc1ccc2c(c1)C(=O)N(C)[C@@H]1CC[C@H](CC(=O)NCC3CCCCC3)O[C@@H]1CO2
34	CN(C)CC(=O)N[C@H]1CC[C@@H](CCn2cc(C3CCCC3)nn2)O[C@H]1CO
35	O=C(C[C@H]1CC[C@H]2[C@@H](COC[C@@H](O)CN2CC2CC2)O1)NCc1ccc(Cl)cc1
36	C[C@@H]1CCCCO[C@@H](CN(C)Cc2ccccc2)[C@@H](C)CN([C@@H](C)CO)C(=O)c2cc(NS(=O)(=O)c3ccccc3)ccc2O1
screen / no. | 31 | 32 | 33 | 34 | 35 | 36
Vaccinia inh | 1 | 2 | -13 | 27 | 3 | -28
Vaccinia inh Venus | -7 | 5 | -14 | 23 | 5 | -25

Screen by screen, as entered above.
Entries 31 to 36 in Vaccinia inh read 1, 2, -13, 27, 3, -28

Next section
37	CNC[C@@H]1Oc2ccc(NC(=O)CCN3CCOCC3)cc2C(=O)N([C@@H](C)CO)C[C@@H]1C
38	COc1ccc(S(=O)(=O)N[C@@H]2CC[C@@H](CCNC(=O)c3ccccc3F)O[C@@H]2CO)cc1
39	O=S(=O)(c1ccccc1)N1CCCCN2[C@@H](CO)[C@@H](c3ccc(C#CC4CCCC4)cc3)[C@@H]2C1
40	COc1ccc(NC(=O)N(C)C[C@H]2Oc3ccc(NC(=O)Cn4cnnn4)cc3C(=O)N([C@@H](C)CO)C[C@@H]2C)cc1
41	COc1ccccc1NC(=O)N[C@@H]1CC[C@H](CCNS(=O)(=O)c2ccc(Cl)cc2)O[C@H]1CO
42	CCCC(=O)Nc1ccc2c(c1)C(=O)N(C)C[C@@H](OC)[C@H](C)CN(Cc1ccccc1F)[C@H](C)CO2
screen / no. | 37 | 38 | 39 | 40 | 41 | 42
Vaccinia inh | 3 | 3 | -29 | 33 | -15 | -19
Vaccinia inh Venus | 9 | 6 | -26 | 21 | -8 | -13

2 entries from above, as tab-separated lines.
cpd	smiles	Vaccinia inh	Vaccinia inh Venus
29	O=C(C[C@@H]1CC[C@H]2[C@@H](COC[C@H](O)CN2Cc2ccccc2F)O1)N[C@H]1CCN(Cc2ccccc2)C1	-4	0
30	C[C@@H]1CN([C@@H](C)CO)C(=O)Cc2cc(NC(=O)Nc3ccc4c(c3)OCO4)ccc2O[C@H]1CN(C)S(=O)(=O)c1ccc(Cl)cc1	-2	7

Next entries follow.
43	COc1ccc2c3c(n(C)c2c1)[C@H](CO)N(Cc1ccccc1)CC31CCN(S(C)(=O)=O)CC1
44	CCCNC(=O)C[C@@H]1CC[C@H]2[C@@H](COC[C@H](O)CN2C(=O)Nc2ccc(Cl)c(Cl)c2)O1
45	C[C@@H]1CN([C@@H](C)CO)C(=O)c2cccc(NC(=O)Nc3ccc(F)cc3)c2O[C@@H]1CN(C)Cc1ccc(-c2ccccc2)cc1
46	COc1ccc2c3c([nH]c2c1)[C@H](CO)N(C(=O)CN1CCOCC1)CC31CN(CC2CCCC2)C1
47	O=C(NCC[C@@H]1CC[C@@H](NS(=O)(=O)c2ccccc2)[C@@H](CO)O1)c1cc(Cl)cc(Cl)c1
48	C[C@@H]1CN([C@@H](C)CO)C(=O)c2cc(C3=CCCC3)cnc2O[C@H]1CN(C)Cc1ccccc1
screen / no. | 43 | 44 | 45 | 46 | 47 | 48
Vaccinia inh | -27 | 5 | ? | -2 | -27 | -18
Vaccinia inh Venus | -26 | 0 | . | 0 | -10 | -18

49	O=C(Nc1ccccc1)N1CCCCN2[C@H](C1)[C@H](c1ccc(-c3ccccc3F)cc1)[C@@H]2CO
50	C[C@H]1CCCCO[C@@H](CN(C)Cc2ccncc2)[C@@H](C)CN([C@@H](C)CO)C(=O)c2cc(NC(=O)Nc3cccc4ccccc34)ccc2O1
51	CC=Cc1ccc2n(c1=O)C[C@@H]1[C@@H](CO)[C@H](C(=O)NCCC)[C@H]2N1Cc1nccs1 (mixture of isomers)
52	C[C@@H]1CCCCO[C@H](CN(C)C(=O)c2ccccc2)[C@@H](C)CN([C@H](C)CO)C(=O)c2cc(N(C)C)ccc2O1
53	O=C(N[C@H]1CC[C@H](CCn2cc(-c3ccccn3)nn2)O[C@H]1CO)c1cccnc1
54	CCC(=O)N1CC2(C1)CN(Cc1ccc(Cl)cc1)[C@H](CO)c1[nH]c3cc(OC)ccc3c12
screen / no. | 49 | 50 | 51 | 52 | 53 | 54
Vaccinia inh | ? | -24 | 11 | 15 | 3 | 18
Vaccinia inh Venus | . | -24 | 7 | 12 | 8 | 10

55	CCCN1C[C@H](C)[C@@H](OC)CN(C)C(=O)c2ccc(NS(C)(=O)=O)cc2OC[C@H]1C
56	O=C(Nc1ccc(F)cc1)N[C@H]1CC[C@@H](CCNS(=O)(=O)c2cccc(Cl)c2)O[C@H]1CO
57	CO[C@@H]1CN(C)C(=O)c2cc(NC(=O)NC(C)C)ccc2OC[C@@H](C)N(Cc2ccc(-c3ccccn3)cc2)C[C@H]1C
58	COc1ccccc1S(=O)(=O)N1C[C@H](O)COC[C@@H]2O[C@@H](CC(=O)O)CC[C@H]21
59	C[C@@H]1CCCCO[C@@H](CN(C)C(=O)c2ccccc2)[C@H](C)CN([C@@H](C)CO)C(=O)c2cc(NS(=O)(=O)c3cn(C)cn3)ccc2O1
60	CNC[C@@H]1Oc2c(NS(=O)(=O)c3ccccc3)cccc2C(=O)N([C@H](C)CO)C[C@H]1C
screen / no. | 55 | 56 | 57 | 58 | 59 | 60
Vaccinia inh | 20 | ? | -23 | 9 | 19 | 8
Vaccinia inh Venus | 14 | . | -25 | 4 | 3 | 2

61	C[C@@H]1CCCCO[C@H](CN(C)C(=O)Nc2ccc(C(F)(F)F)cc2)[C@@H](C)CN([C@H](C)CO)C(=O)c2cc(NC(=O)Nc3ccc(C(F)(F)F)cc3)ccc2O1
62	C[C@@H]1CN([C@H](C)CO)C(=O)CCCn2nncc2CO[C@@H]1CN(C)C(=O)Nc1ccccc1F
63	CCC(=O)N1C[C@H](O)COC[C@@H]2O[C@@H](CC(=O)N3CCCCC3)CC[C@H]21
64	C[C@H](NC(=O)[C@H]1[C@H](CO)[C@H]2Cn3c(cccc3=O)[C@@H]1N2C(=O)C1CCCC1)c1ccccc1
65	CCCC(=O)Nc1ccc2c(c1)C(=O)N(C)C[C@H](OC)[C@@H](C)CN(C(=O)c1ccccc1F)[C@@H](C)CO2
66	C[C@@H]1CN([C@H](C)CO)C(=O)c2cc(NC(=O)Nc3cccc4ccccc34)ccc2O[C@H]1CN(C)C(=O)Nc1ccc(F)cc1
screen / no. | 61 | 62 | 63 | 64 | 65 | 66
Vaccinia inh | 14 | 13 | 15 | 22 | -3 | 18
Vaccinia inh Venus | 14 | 8 | 18 | 13 | -1 | 19

67	C[C@@H]1CN([C@H](C)CO)S(=O)(=O)c2ccc(C#Cc3ccccc3)cc2O[C@H]1CN(C)C(=O)Nc1ccccc1
68	CO[C@H]1CN(C)C(=O)c2ccc(NC(C)=O)cc2OC[C@H](C)NC[C@@H]1C
69	CS(=O)(=O)N1CC(=O)N2[C@H](CO)[C@@H](c3ccc(Br)cc3)[C@@H]2C1
70	CCN1[C@@H]2c3ccc(-c4ccccc4OC)c(=O)n3C[C@H]1[C@H](CO)[C@H]2C(=O)NCc1ccccn1
71	Cc1ccc(S(=O)(=O)N(C)C[C@@H]2OCCCC[C@@H](C)Oc3ccc(NS(=O)(=O)c4cccs4)cc3C(=O)N([C@H](C)CO)C[C@@H]2C)cc1
72	Cc1noc(C)c1S(=O)(=O)N(C)C[C@H]1OCc2cnnn2CCCC(=O)N([C@H](C)CO)C[C@H]1C
screen / no. | 67 | 68 | 69 | 70 | 71 | 72
Vaccinia inh | ? | 4 | -18 | 8 | 5 | 7
Vaccinia inh Venus | . | -2 | -12 | 6 | -4 | 6

73	C[C@@H](NC(=O)[C@@H]1[C@@H](CO)[C@@H]2Cn3c(cccc3=O)[C@H]1N2C(=O)C1CC1)c1ccccc1
74	COCC(=O)N1CCC2(CC1)CN(C(=O)CN1CCOCC1)[C@@H](CO)c1c2c2ccc(OC)cc2n1C
75	CCNC(=O)C[C@@H]1CC[C@@H](NC(=O)NC2CCCCC2)[C@H](CO)O1
76	O=C(C1CCC1)N1CC2(C1)[C@H](c1ccccc1)[C@H](CO)N2Cc1cncnc1
77	COc1ccc(S(=O)(=O)Nc2ccc3c(c2)CC(=O)N([C@H](C)CO)C[C@H](C)[C@@H](CN(C)C(=O)Nc2c(C)noc2C)O3)cc1
screen / no. | 73 | 74 | 75 | 76 | 77
Vaccinia inh | 23 | 2 | -1 | 12 | 5
Vaccinia inh Venus | 10 | -4 | 2 | 11 | 3

An excerpt. The share of hits here may be higher or lower than overall.
